Ba CapD inh: Bacillus anthracis CapD inhibitors, primary screen, biochemical, fluorescence intensity. CapD gamma-glutamyltranspeptidase (Bacillus anthracis Ames Ancestor). purified CapD enzyme, fluorescence intensity read-out; hits give low values; some hits fall short of the stated cut. z-score (no concentration beside the values). 140,000 compounds, 0.23% hits. AID 492967, 2010;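 active = z-score under -4 in either of two replicates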;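 note: stock transfer was 100 nL into about 40 µL; score is relative to mean and spread of the plate; one replicate is shown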
AID504770: growth inhibition of E. coli YBA685, primary screen, V. cholerae RctB inhibitors | 130,000 compounds, 0.27% hits | E. coli YBA685 rctB-dependent plasmid, OD600 growth, 3 h; hits give low values | z-score (no concentration beside the values);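 active = z-score under -2 on both plates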;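 note: wells of about 30 µL received 100 nL stock; score is relative to mean and SD of the test wells; the first replicate is given; strong numbers were not always called active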
The depositor's hits bear a star; . = not tested or not shown.

SMILES | Ba CapD inh | AID504770
CCOC(=O)c1ccc(-n2c(C)cc(C=C3C(=O)N(C)C(=O)N(C)C3=O)c2C)cc1 | -0.26 | .
CC1CCCCN1c1nnc(NC(=O)Nc2ccccc2C(F)(F)F)s1 (stereo not drawn) | 0.18 | -1.1
Cc1nc(-c2ccccc2)sc1C(=O)NCc1ccco1 | 1.7 | -0.05
Cc1ccc2[nH]c3c(c2c1)CCC/C3=N/O | 9.3 | 0.4
COc1ccc(CNC(=O)CSc2nc3[nH]ncc3c(=O)n2-c2ccccc2Br)cc1 | -0.46 | .
CCc1ccc(N2C(N)=C(C#N)C3(C(=O)Nc4ccccc43)C3=C2CCCC3=O)cc1 (stereo not drawn) | . | 0
Cc1cc(=O)n2c(n1)NC(Nc1ccc(C(C)C)cc1)=NC2c1ccccc1 (stereo not drawn) | 5.7 | -0.15
CC1(C)N2CC3([N+](=O)[O-])CN1CC([N+](=O)[O-])(C2)C3(C)C | -0.025 | .
CCC(Sc1nc2ncccc2[nH]1)C(=O)N1CCCCCC1 (stereo not drawn) | 1.8 | -0.05
CCOC(=O)c1oc2ccccc2c1COC(=O)C12CCC(=O)N1c1ccccc1S2 (stereo not drawn) | . | -0.1
CN1CC[C@@]2(C)c3cc(O)ccc3N(C)C12 (stereo partly drawn) | -0.88 | .
O=C(/C=C/c1ccccc1)NCc1n[nH]c(=O)c2ccccc12 | . | -0.45
CCOC(=O)C1=C(N)n2c(s/c(=C\c3ccc(OC)cc3)c2=O)=C(C(=O)OCC)C1c1ccc(OC)cc1 (stereo not drawn) | -0.025 | .
O=C(Nc1ccncc1)c1c(Cl)nc2sccn12 | -0.21 | -0.8
O=C(O)CCC(=O)Nc1ccccc1O | . | 0.15
Cc1nc2nc(N)nn2c(C)c1CC(=O)NC(C)c1ccccc1 (stereo not drawn) | . | -0.05
Cc1ccc(C(=O)Nc2sc3c(c2C(=O)Nc2ccccc2Cl)CCCCC3)cc1 | -0.11 | .
NS(=O)(=O)c1ccc(CCNS(=O)(=O)c2ccc3c(c2)CN(C(=O)C(F)(F)F)CC3)cc1 | -0.23 | .
COc1ccc(CCNc2c[nH]c(=O)[nH]c2=O)cc1OC | 0.54 | -0.35
N#CCCn1c(SCC(=O)NCC23CC4CC(CC(C4)C2)C3)nc2ccccc21 | . | -0.4
CSc1scc(NS(=O)(=O)c2ccc(Cl)cc2)c1S(=O)(=O)C(C)C | -0.36 | -0.8
O=C(O)CCC(=O)N1CCC(Oc2nnnc3ccccc23)CC1 | 0.09 | 0.4
O=C(CCN1C(=O)/C(=C\c2ccccc2)SC1=S)Oc1ccc2oc(=O)sc2c1-c1ccc(Cl)cc1 | -0.03 | .
Nc1cc(-c2ccccc2)nn1Cc1ccc(Cl)cc1 | 8.8 | 0.05
COc1cccc(CNC(=O)C(C)N2Cc3ccccc3C2=O)c1 (stereo not drawn) | -0.83 | -0.35

As a short view, 19 of the compounds above.
SMILES | Ba CapD inh | AID504770
Cc1nc(-c2ccccc2)sc1C(=O)NCc1ccco1 | 1.7 | -0.05
Cc1ccc2[nH]c3c(c2c1)CCC/C3=N/O | 9.3 | 0.4
COc1ccc(CNC(=O)CSc2nc3[nH]ncc3c(=O)n2-c2ccccc2Br)cc1 | -0.46 | .
CCc1ccc(N2C(N)=C(C#N)C3(C(=O)Nc4ccccc43)C3=C2CCCC3=O)cc1 (stereo not drawn) | . | 0
Cc1cc(=O)n2c(n1)NC(Nc1ccc(C(C)C)cc1)=NC2c1ccccc1 (stereo not drawn) | 5.7 | -0.15
CC1(C)N2CC3([N+](=O)[O-])CN1CC([N+](=O)[O-])(C2)C3(C)C | -0.025 | .
CCC(Sc1nc2ncccc2[nH]1)C(=O)N1CCCCCC1 (stereo not drawn) | 1.8 | -0.05
CCOC(=O)c1oc2ccccc2c1COC(=O)C12CCC(=O)N1c1ccccc1S2 (stereo not drawn) | . | -0.1
CN1CC[C@@]2(C)c3cc(O)ccc3N(C)C12 (stereo partly drawn) | -0.88 | .
O=C(/C=C/c1ccccc1)NCc1n[nH]c(=O)c2ccccc12 | . | -0.45
CCOC(=O)C1=C(N)n2c(s/c(=C\c3ccc(OC)cc3)c2=O)=C(C(=O)OCC)C1c1ccc(OC)cc1 (stereo not drawn) | -0.025 | .
O=C(Nc1ccncc1)c1c(Cl)nc2sccn12 | -0.21 | -0.8
O=C(O)CCC(=O)Nc1ccccc1O | . | 0.15
Cc1nc2nc(N)nn2c(C)c1CC(=O)NC(C)c1ccccc1 (stereo not drawn) | . | -0.05
Cc1ccc(C(=O)Nc2sc3c(c2C(=O)Nc2ccccc2Cl)CCCCC3)cc1 | -0.11 | .
NS(=O)(=O)c1ccc(CCNS(=O)(=O)c2ccc3c(c2)CN(C(=O)C(F)(F)F)CC3)cc1 | -0.23 | .
COc1ccc(CCNc2c[nH]c(=O)[nH]c2=O)cc1OC | 0.54 | -0.35
N#CCCn1c(SCC(=O)NCC23CC4CC(CC(C4)C2)C3)nc2ccccc21 | . | -0.4
CSc1scc(NS(=O)(=O)c2ccc(Cl)cc2)c1S(=O)(=O)C(C)C | -0.36 | -0.8

(further entries)
SMILES | Ba CapD inh | AID504770
CC(=O)Nc1ccc(C#N)c(C(F)(F)F)c1 | 0.46 | -1.4
O=C(CN(CCO)CC(=O)Nc1ccc(C(F)(F)F)cc1)Nc1ccc(C(F)(F)F)cc1 | . | -0.15
S=C(NC1CCCCC1)C12CCC3CC(CC(C3)C1)C2 | 0.3 | -0.1
COC(=O)c1cc2occc2n1C | -0.26 | -0.7
CCOc1ccccc1C(=O)NC1CC2CCCC(C1)N2Cc1nnnn1Cc1ccco1 (stereo not drawn) | . | 0.05
Cc1nc(C)c(C(=O)N/N=C/c2ccc(O)cc2O)cc1C(=O)N/N=C/c1ccc(O)cc1O | . | -1.5
Fc1cc2c(c(CSc3nc4ccccc4s3)c1)OCOC2 | 0.26 | -0.4
COC(=O)c1c(NC(=O)CSc2ncnc3sc(C)c(C)c23)sc2c1CCC2 | -0.46 | .
Cc1ccsc1C(=O)OC1CCOC1=O (stereo not drawn) | . | -0.25
CC(C)c1ccc(C2C=C(Nc3cccc(Cl)c3)C(=O)N2c2cccc(Cl)c2)cc1 (stereo not drawn) | -0.33 | .
Cc1cccc(COc2nn[nH]n2)c1 | . | -0.35
COC(=O)c1sccc1NC(=O)C1c2ccccc2Oc2ccccc21 | -0.1 | -0.7
O=C1CC(C(F)(F)F)=NN1 | 0.05 | .
CCOC(=O)c1c(-n2c(C)cc(/C=C3/C(=O)NC(=O)N(CC)C3=O)c2C)sc2c1CCCC2 | 0.22 | -0.2
O=C1NC(c2cccc(F)c2)=N/C1=C/c1cc2c(cc1Cl)OCO2 | . | 0.05
N#CNC1=NCN(C2CCCCC2)CN1 | . | -0.45
Clc1ccc(C=C2c3ccccc3-c3ccccc32)cc1 | 0.08 | .
CCc1[nH]nc2c1C(C1C=CCCC1)C(C#N)=C(N)O2 (stereo not drawn) | -1.4 | -0.2
Cc1ccc(S(=O)(=O)N2CCCC(c3nnc4n3-c3ccccc3SC4)C2)cc1 (stereo not drawn) | . | -0.3
Cc1ccc(NCC(=O)O)cc1 | -0.96 | -0.65
COCC(C)NC(=O)c1cccc(OC)c1 (stereo not drawn) | -0.02 | 1.1
CC(C)(C)c1ccc(NC(=O)COC(=O)Cc2ccsc2)cc1 | -0.11 | 0.5
CC(C)S(=O)(=O)c1csc(NC(=O)N2CCCCC2)c1Cl | -0.11 | -0.35
O=C(/C=C/c1ccc(Br)o1)OCc1cc(=O)oc2cc3c(cc12)CCC3 | . | -0.2
CNC(=O)c1c(I)c(C(=O)NCC(=O)Nc2c(I)c(C(=O)O)c(I)c(C(=O)NCCO)c2I)c(I)c(N(C)C(C)=O)c1I | 0.17 | .

Part of the list above, with two lines to a compound:
Every second line gives: Ba CapD inh | AID504770
CC(C)c1ccc(C2C=C(Nc3cccc(Cl)c3)C(=O)N2c2cccc(Cl)c2)cc1 (stereo not drawn)
  -0.33 | .
Cc1cccc(COc2nn[nH]n2)c1
  . | -0.35

As entered above:
`O=C(CN(CCO)CC(=O)Nc1ccc(C(F)(F)F)cc1)Nc1ccc(C(F)(F)F)cc1` in AID504770: -0.15
`Cc1nc(C)c(C(=O)N/N=C/c2ccc(O)cc2O)cc1C(=O)N/N=C/c1ccc(O)cc1O` in AID504770: -1.5
`CC(C)c1ccc(C2C=C(Nc3cccc(Cl)c3)C(=O)N2c2cccc(Cl)c2)cc1` (stereo not drawn) in Ba CapD inh: -0.33

Next part:
SMILES | Ba CapD inh | AID504770
CC1C2CC(CC2=NNC(=O)c2cccs2)C1(C)C (stereo not drawn) | 0.095 | 2.8
Cc1nn(C(C)(C)C)c(C)c1/C=N/OC(=O)c1cccs1 | -0.005 | 0.9
O=C(Nc1ccccn1)c1ccccc1O | . | -1.2
CCOc1ccccc1N/C(SCc1c(F)cccc1Cl)=C(/C#N)C(=O)NCCc1ccc(OC)c(OC)c1 | -0.18 | .
CC1(C)CC(=O)C2=C(C1)N(Cc1ccccc1)CN(Cc1ccco1)C2 | -0.5 | -0.85
CCOC(=O)COc1cc2oc(=O)c3c(c2cc1CC)CCCC3 | 36 | .
CSc1ncc2c(=O)n(Cc3ccccc3)ccc2n1 | 1.2 | -0.5
CCC(=O)NC1CCC(c2ccccc2)CC1 (stereo not drawn) | . | -0.5
CCOC(=O)N1CCC(Nc2ncnc3c2c(-c2ccccc2)cn3-c2ccc(F)cc2)CC1 | 0.21 | .
CCOC(=O)c1c(CN2CCC(C)CC2)oc2ccc(OC)cc12 | 0.37 | -0.1
COc1ccc(-n2c3nc4ccccc4nc3c3c(=N)oc(C)nc32)cc1 | . | -2.3
N#Cc1c(F)cccc1-n1cccc1 | 0.73 | .
Cc1ccc2nc(Cl)c3cc(C(=O)NC(C)CCc4ccco4)sc3c2c1 (stereo not drawn) | 28 | -1.4
Cc1noc(C)c1C(=O)N1CCC(C(=O)c2ccccc2)CC1 | 0.42 | .
Cc1c(C2C3=C(CC(C)(C)CC3=O)OC3=C2C(=O)CC(C)(C)C3)c(=O)n(C)n1-c1ccccc1 | 0.4 | .
COc1cccc(/C=N/c2sc3c(c2C#N)CCCC3)c1O | -0.44 | -0.3
C[N+]1(CCn2ccc3ccccc32)CCCCC1 | 12 | -0.5
O=C(O)c1nn(CCO)c(=O)c2ccccc12 | . | -0.15
COc1ccc(NC(=S)Nc2ccn(C)n2)c(OC)c1 | -0.72 | -0.2
NC(=O)c1cnccc1C(F)(F)F | -0.2 | .
Cc1cc(C)c(C)c(S(=O)(=O)N2CCN(Cc3ccco3)CC2)c1C | -0.29 | .
CC1=CC(C)C2(CO)COC(c3ccc(O)cc3)C1C2C (stereo not drawn) | 0.18 | .
O=C1CCC2=C(CCCC2)N1c1ccccc1 | -0.7 | 2.5
CN(C)CCc1c[nH]c2ccc(CS(=O)(=O)N3CCCC3)cc12 | . | -0.25
CN1C2CCC1CC(NC(=O)CSCc1ccc(Cl)cc1Cl)C2 (stereo not drawn) | 0.22 | 0.75

(continued)
SMILES | Ba CapD inh | AID504770
CCOC(=O)c1c(NC(=O)Cn2c(=O)cc(C)[nH]c2=O)sc(C(=O)NC)c1C | . | 0.35
Cc1ccc(NC(=S)N2C(C)CCCC2C)c(C)c1 (stereo not drawn) | 0.21 | .
CCCOc1ccc(C(=O)N2CCCC2C(=O)O)cc1 (stereo not drawn) | 0 | -0.75
NCC12CC3CC(C1)CC(CN)(C3)C2 | 0.68 | 0.05
Cc1ccc(SCC2CNC(c3ccc(N(C)C)cc3)O2)cc1 (stereo not drawn) | -2.4 | 0.8
Cc1cc(C)c(NC(=O)CSCC(=O)c2ccc(Cl)cc2)c(C)c1 | -0.94 | -0.25
COc1ccc(/C=C2\C(=O)NC(=S)N(c3cccc(Cl)c3)C2=O)c(OC)c1OC | -0.37 | .
Cc1cc(C(=O)CSc2nnc(Cc3ccccc3)o2)c(C)n1Cc1ccc2c(c1)OCO2 | . | -0.6
CC(Oc1ccc(C(=O)c2ccc(F)cc2)cc1)C(=O)NC(N)=O (stereo not drawn) | . | -0.2
CCN1C(=O)C(OC(=O)c2cscn2)CC1c1ccc(OC)cc1 (stereo not drawn) | . | 0.15
O=C(O)C1CCCN(S(=O)(=O)c2ccc(Cl)cc2)C1 (stereo not drawn) | -0.12 | 0.4
COc1ccc2[nH]c(=O)c(CN(C(=O)Nc3ccccc3)C3CCCC3)cc2c1 | . | -0.35
COc1ccc(/C=C2\SC(=S)N(CCC(=O)N(CCO)Cc3ccccc3)C2=O)cc1OC | -1.3 | .
O=C(COC(=O)Cn1cnc2ccccc2c1=O)Nc1ccc(N2CCOCC2)cc1 | . | 0.2
CCN(CC)c1ccc2cc(-c3nc4ccccc4c(=O)[nH]3)c(=N)oc2c1 | 0.8 | -0.3
Cn1nnc(-c2cc(Cl)cc(Cl)c2)n1 | -0.77 | -0.1
CCOC(=O)Cc1csc(NC(=O)CSc2nc3c(C)c(C)ccc3cc2C#N)n1 | . | 0.7
COc1cccc(CNn2c(-c3cccc(C)c3)nc3ccccc3c2=O)c1O | 0.14 | -0.35
CCN(CC)S(=O)(=O)c1cccc(C(=O)N/N=C/c2c(C)nn(-c3ccccc3)c2N2CCCC2)c1 | . | -0.25
O=C(NC(Cc1c[nH]c2ccccc12)C(=O)OCc1ccccc1)OCCc1ccc(Cl)cc1Cl (stereo not drawn) | 0.09 | .
CN(C)c1ccnc(C(=O)O)c1 | . | -0.1
COc1ccc(C(=O)SC2=NC(C)CC(=O)N2)cc1OC (stereo not drawn) | . | 0.35
CCN(CC)S(=O)(=O)c1cccc(C(=O)N[C@H](C(=O)NCc2ccc3c(c2)OCO3)C(C)C)c1 | . | 1.4
COc1ccc(CCN2C(=O)C(C(C)C)NC2=S)cc1OC (stereo not drawn) | . | 0.45
CC(C)(C)c1nnc(-c2cnccc2C(F)(F)F)o1 | 0.36 | 0.45
CCC(=O)Nc1cccc(C(=O)N/N=C/c2c(Cl)cccc2Cl)c1 | 0 | .
CS(=O)(=O)Nc1ccc(C(=O)N2CCN(c3ccccc3)CC2)cc1 | 0.12 | 0.3
